MT1-MMP act inh = inhibitors of human MT1-MMP activation; GFP/RFP ratio change, % at 20 µM; HT1080 RFP-PRO-GFP cells, GFP/RFP ratio fluorescence, overnight; percent of plate control window, DMSO zero; hit rate 0.061% among 360,000; P50281;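 active = GFP/RFP ratio change of at least 30% with cell ATP level not reduced by more than half and red fluorescence within 50% of control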; also: strong numbers were not always called active
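Assay system: RFP-PRO-GFP reporter HT1080 cells; read-out basis: GFP/RFP fluorescence ratio; benchmarks: DMSO wells and RFP-L50D-GFP cells; doses: 20 µM single dose, 1% DMSO; schedule: overnight cell settling, then overnight compound exposure, 37 °C, 5% CO2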
CSC inhib = cancer stem cell inhibition; cancer stem cell-like cells viability, luminescence; inhibition, % at 7.5 µM; hit rate 1.1% among 300,000; AID 2717;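 active = mean at 75% or more and at least half the replicates too; tested in HMLE shEcad cells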;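 also: 0% = median of negative and 100% = median of positive control wells; the first replicate is given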
eIF4H FP inh = inhibitors of RNA binding by human eIF4H; Q15056; eIF4H fluorescence polarization binding assay; inhibition, % at 35 µM; hit rate 0.94% among 290,000;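 active = 50% or more with normal probe brightness, or confirmed in later tests; about a fifth of its hits are not listed in these tables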;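 also: calls also rest on retests at 20 µM and on dose response follow-up; 0% = protein and probe with vehicle and 100% = probe without protein; strong numbers were not always called active; many hits fall short of the cut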
Rce1 inh = inhibitors of yeast Ras-converting enzyme. hit rate 0.27% among 290,000. Q03530. AID 2563. calls only. yeast membranes, quenched prenylated peptide cleavage fluorescence;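 active = fall in fluorescence gain of 50% or more versus controls, with final raw signal at or below 3038400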;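 also: plate controls were neutral control wells for no effect and wells lacking membranes for full effect; tested at 10 µM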
PABP polyA inh = PABP-poly(A) binding inhibition. P11940. PABP-poly(A) RNA binding, fluorescence polarization. inhibition, % at 35 µM. hit rate 1% among 290,000. AID 2014;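 active = 50% or more with normal probe brightness, or confirmed in later tests; about a fifth of its hits are not listed in these tables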;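 also: calls also rest on retests at 20 µM and on dose response follow-up; controls were probe without protein and protein plus probe with vehicle; some compounds called inactive have numbers as strong as hits; many hits fall short of the cut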
Target sequence (P11940 whole entry, looked up): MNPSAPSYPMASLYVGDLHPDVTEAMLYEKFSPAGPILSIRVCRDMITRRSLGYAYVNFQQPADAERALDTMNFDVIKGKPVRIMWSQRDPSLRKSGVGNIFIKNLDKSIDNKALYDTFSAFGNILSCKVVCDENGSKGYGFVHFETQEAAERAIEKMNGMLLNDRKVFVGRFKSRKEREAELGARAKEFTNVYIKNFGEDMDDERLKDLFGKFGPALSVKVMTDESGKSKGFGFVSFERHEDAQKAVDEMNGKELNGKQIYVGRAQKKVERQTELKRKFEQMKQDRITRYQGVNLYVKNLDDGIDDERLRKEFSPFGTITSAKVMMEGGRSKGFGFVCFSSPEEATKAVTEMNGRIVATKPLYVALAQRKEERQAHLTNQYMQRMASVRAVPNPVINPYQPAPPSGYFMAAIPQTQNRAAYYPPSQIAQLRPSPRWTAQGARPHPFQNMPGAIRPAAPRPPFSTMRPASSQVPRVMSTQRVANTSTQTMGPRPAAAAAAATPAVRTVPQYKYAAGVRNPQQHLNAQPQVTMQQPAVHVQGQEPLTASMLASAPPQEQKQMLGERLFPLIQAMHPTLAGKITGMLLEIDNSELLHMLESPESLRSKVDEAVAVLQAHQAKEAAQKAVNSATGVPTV
UUG fidelity = yeast start codon fidelity modulation; activity score, % at 18.7 µM; S. cerevisiae UUG-firefly luciferase reporter, luminescence/redox ratio; AID 602363; hit rate 0.13% among 350,000;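 active = replicate mean at a twofold rise or more, about +100% in these data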;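 also: firefly luciferase made from a UUG start codon reports start codon fidelity; reporter light over untreated wells divided by growth signal over untreated wells; some hits fall short of that in this replicate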
Env fusion inh = inhibitors of HIV Env-mediated cell fusion; HeLa-JRFL Env/CEM21 cell fusion, luciferase; inhibition, % at 12.3 µM; hit rate 1.1% among 360,000;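 active = mean replicate inhibition score of at least 50 and every replicate individually at or above 50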;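 also: 0% = plate neutral controls and 100% = maraviroc near 300 nM; one replicate is shown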
eIF4H FP inh retest = recorded beside eIF4H FP inh, whose call it bears; inhibition, %; compound at 20 µM; confirmation average;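 mean of two retest wells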
PABP polyA inh retest = recorded beside PABP polyA inh, whose call it bears; inhibition, %; compound at 20 µM; confirmation repeats;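 mean of two retest wells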
MT1-MMP act inh RFP = also measured in MT1-MMP act inh; calls as there; RFP signal change, %; measured here: RFP expression control read;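 0 = vehicle wells; hits needed this value within 50% of zero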
* = called active by the depositor; i = inactive; nt = no result given. Not a hit list. About 3% of those tested had a hit in this group.

SMILES	MT1-MMP act inh	MT1-MMP act inh RFP	CSC inhib	eIF4H FP inh	Rce1 inh	PABP polyA inh	UUG fidelity	Env fusion inh	others
Cc1ccc(SC/C(O)=C(\C#N)c2nc3ccccc3n2C)cc1	-40.0	-30.8	24.2	3.1	i	6.3	-12.3	nt
CC(=O)N=c1n(C)c2ccccc2n1CCOc1ccccc1	1.0	3.1	-4.4	0.6	i	-11.8	nt	-6.2
COc1ccccc1N1CCN(C2CCCC(C)C2)CC1 (configuration not stated)	-1.5	2.4	19.1	1.6	i	15.5	-21.8	nt
CC(C)N1C(=S)SC(C)(C)C1NO (configuration not stated)	-1.5	-2.8	-5.2	6.6	i	-4.8	-21.7	nt
O=[N+]([O-])c1ccc2c(c1)-c1ccccc1C2=NO	-11.2	-4.3	nt	nt	nt	nt	-23.3	0.3
C/C=C/c1ccc(OCCOCCNCc2ccccc2)c(OC)c1	-1.7	-5.2	nt	-5.7	i	6.5	-5.9	89.4*
Cc1cc2nc(-c3ccc(SCc4ccc(C#N)cc4)nc3)[nH]c2cc1C	-8.3	-24.6	16.3	-4.3	i	-5.0	-19.7	nt
Cc1[nH]c2ccccc2c1C(=O)CN1C(=O)C(=O)N(C2CCCC2)C1=O	1.1	6.1	-10.2	13.0	i	-4.4	-9.7	-10.0
COc1ccc(C(N)c2csc(Nc3nncc4ccccc34)n2)cc1 (configuration not stated)	-2.0	-2.8	nt	nt	nt	nt	-16.1	-121.6
Cc1ccc2cc(CN(CC3CCCO3)C(=S)NCc3ccco3)c(=O)[nH]c2c1C (configuration not stated)	-3.5	-1.0	1.5	3.9	i	-6.4	nt	nt
CC(C)CN1C(=O)C(=O)N(CC(=O)N2CCC(Cc3ccccc3)CC2)C1=O	2.3	2.9	-1.5	8.2	i	3.2	nt	28.8
O=c1cnnc(Nc2cccc(F)c2)[nH]1	-1.3	4.0	8.3	7.1	i	-3.9	-14.8	-12.3
Cc1cc(N)ccc1-n1c(C)ccc1C	85.8	94.5	nt	12.6	i	14.5	-16.7	-42.1
CCOc1ccccc1NC(=O)CN(c1ccc(OC)c(OC)c1)S(=O)(=O)c1ccc(C)cc1	0.8	-1.5	nt	nt	nt	nt	-9.8	4.5
Cc1ccccc1C(=O)OCn1nnc2ccccc2c1=O	1.4	7.9	-2.2	5.4	i	-10.3	-12.7	-2.4
COc1ccc(CCNC(=O)CN2C(=O)CCSc3ccccc32)c(OC)c1	-3.2	-2.0	-23.1	-14.1	i	-1.3	-15.9	3.7
CCOC(=O)C1=C(C)c2ccccc2OC1(C)C(=O)OCC (configuration not stated)	-2.8	-1.1	nt	nt	nt	nt	-3.1	-8.8
N#CC1(NC(=O)COC(=O)c2cccc(-n3cnnn3)c2)CCCCC1	-1.1	-0.1	3.5	nt	i	nt	-0.6	2.8
CCN(CC(=O)Nc1ccc(Br)cc1)CC(=O)Nc1cc(C)on1	2.8	3.4	nt	nt	nt	nt	-9.2	-44.0
O=C(NCc1ccccc1)c1nc(S(=O)(=O)Cc2ccccc2)ncc1Cl	0.3	3.1	51.9	-5.2	i	12.3	1.3	30.2
CC(C)=C(NC(=O)c1ccccc1)C(=O)NC(Cc1ccccc1)C(=O)O (configuration not stated)	4.2	4.9	8.7	-13.5	nt	13.1	-10.7	-5.8
Cc1cc(Nc2cc(F)ccc2C)n2nc(C)nc2n1	7.4	-1.7	-15.1	-4.0	i	16.3	4.8	-13.4
COc1ccc(S(=O)(=O)N2CCOC2CNC(=O)C(=O)NCc2ccc(F)cc2)cc1 (configuration not stated)	3.5	-5.7	-0.9	-9.2	i	0.2	15.3	14.4
O=C(NNC(=O)c1ccc(Br)s1)c1csc(N2CCOCC2)n1	1.0	-2.4	-13.7	nt	nt	nt	-15.7	nt
CCc1ccc(Sc2cc(C(=O)NCCN3CCOCC3)c3ccccc3n2)cc1	3.6	2.8	-2.2	0.2	i	1.7	-8.7	nt
SMILES	MT1-MMP act inh	MT1-MMP act inh RFP	CSC inhib	eIF4H FP inh	Rce1 inh	PABP polyA inh	UUG fidelity	Env fusion inh	others
CCCn1nc(C(=O)OCn2nnc3ccccc3c2=O)c2ccccc2c1=O	4.5	3.1	-2.9	2.4	i	-7.2	nt	14.5
Cc1ccc(Cn2nnnc2CN2CCC(NC(=O)c3ccccc3F)CC2)cc1	-3.6	-3.7	nt	0.6	i	-4.3	0.0	nt
CCN(CC)CCNc1nc2ccccc2n1C	6.0	11.4	-5.5	-7.6	i	11.0	-9.6	-66.0
Cc1ccc(N(C)S(=O)(=O)c2cccc(C(=O)Oc3ccc4c(C)cc(=O)oc4c3)c2)cc1	-5.5	0.6	nt	8.5	i	2.3	nt	5.3
Cc1ccsc1/C=N/NC(=O)c1ccc2nc[nH]c2c1	2.6	2.2	9.3	-7.7	i	-6.2	nt	-21.7
N/C(=N\OC(=O)C1CCCCC1)c1ccccn1	-0.2	2.2	-9.8	-7.1	i	-3.5	-43.8	-81.5
O=C(O)CCCCCN1C(=O)/C(=C\c2cn(-c3ccccc3)nc2-c2cccs2)SC1=S	2.7	-5.3	103.2*	57.7	i	1.5	-6.4	4.7	eIF4H FP inh retest=-8.7;PABP polyA inh retest=3.8
CCn1c(C(=O)N2CCC(C(=O)NCc3ccc4c(c3)OCO4)CC2)cc2sccc21	9.6	-6.0	nt	4.4	nt	-4.6	6.3	-17.7
O=C(C=Cc1ccccc1O)c1ccccc1O	-5.6	-12.2	nt	nt	nt	nt	-23.9	-0.8
COc1cc(/C=N/n2cnnc2)ccc1OS(=O)(=O)c1ccccc1[N+](=O)[O-]	-1.4	-0.6	-2.4	13.6	i	-3.2	-11.3	nt
CCCC(=O)N(Cc1cc2cc(OC)ccc2[nH]c1=O)c1ccccc1OC	-1.6	-0.2	nt	nt	nt	nt	-8.1	-45.4
CC(C)CN(CCNC(=O)CN1C(=O)CSc2ccc(S(=O)(=O)N3CCOCC3)cc21)CC(C)C	-1.6	1.2	-21.6	-9.7	i	10.7	nt	-2.8
Cc1ccc(S(=O)(=O)c2nc(-c3ccccc3)oc2N2CCC(C(N)=O)CC2)cc1	-0.8	1.6	-2.6	-1.9	i	1.0	5.6	12.1
CCOc1ccccc1N(CC(=O)Nc1ccc(OC)c(OC)c1)S(=O)(=O)c1ccccc1	-2.0	-3.0	-10.3	-13.4	i	-0.8	-7.5	14.2
Cc1ccc(C(=O)NC(=S)Nc2ccc3[nH]c(=O)[nH]c3c2)cc1	0.4	-0.5	0.7	-2.1	i	-0.8	-3.1	-5.1
COC(=O)CC(CP(=O)(O)CN(C)C=O)C(=O)OC (configuration not stated)	0.2	5.3	-16.9	5.3	i	-0.5	nt	-10.8
O=[N+]([O-])c1ccc(NCc2ccccc2)nc1	-1.2	0.7	31.2	15.3	i	-13.9	nt	-7.0
Nn1cnc2sc3c(c2c1=O)CCC3	0.9	-5.6	-6.9	-7.6	i	7.5	-2.7	nt
CC(=O)C(Sc1nnnn1-c1ccccc1)C(C)=O	0.6	3.9	-15.5	-4.7	i	-7.9	-29.5	-5.1
Cn1c(=O)c2c(ncn2CC(=O)N2CCN(c3ccc([N+](=O)[O-])cc3)CC2)n(C)c1=O	-3.3	-2.7	-0.1	-5.8	nt	4.8	-10.6	-21.3
COc1ccc(/C=N/NC(=O)CN2CCS(=O)(=O)CC2)cc1	-0.1	4.3	-13.4	2.4	i	0.1	-16.1	nt
Cc1onc(-c2ccccc2Cl)c1C(=O)Nc1cccc(S(=O)(=O)NC2=NCCC2)c1	0.9	-0.3	-15.1	nt	i	nt	nt	nt
CC(C)c1nnc(NC(=O)c2cccc(NC(=O)C(F)(F)F)c2)s1	-2.0	-1.3	0.3	-0.9	i	1.0	nt	0.9
COc1ccccc1/C=C/C(=O)Nc1ccc(N2CCOCC2)cc1	7.1	2.4	5.8	3.9	nt	3.3	-17.7	-14.7
COc1ccccc1C(=O)NCCC(=O)N1CCCCC1	0.3	5.0	2.1	-6.4	i	0.5	-11.9	-3.3
SMILES	MT1-MMP act inh	MT1-MMP act inh RFP	CSC inhib	eIF4H FP inh	Rce1 inh	PABP polyA inh	UUG fidelity	Env fusion inh	others
CCn1ncc([N+](=O)[O-])c1C(=O)n1nc(C)cc1C	3.9	6.9	-4.0	1.1	i	4.4	nt	15.4
CC1(C)CC2CC(C)(CN2C(=O)COC(=O)c2cccc([N+](=O)[O-])c2)C1 (configuration not stated)	1.6	-0.6	-19.8	nt	nt	nt	nt	-1.4
Cc1nn(C(=O)c2ccco2)c(C)c1Sc1ccc(Cl)cc1	5.3	4.8	nt	1.6	i	-2.9	nt	-7.5
O=C(Nc1ccc(-c2nc3cccnc3s2)cc1)c1ccc(Cl)nc1	7.7	-3.2	12.9	-11.8	i	-17.4	nt	-53.3
CC(=O)N1CCN(Cc2ccc(Br)s2)CC1	5.3	5.4	-16.4	8.0	i	12.6	nt	nt
OC[C@@H]1CN(Cc2ccc(Cl)cc2)C[C@H](n2cnc3c(NCc4ccc(F)cc4)ncnc32)O1	-0.4	-14.7	nt	nt	nt	nt	8.5	19.0
CCOC(=O)N1CCN(C(=S)NC)CC1	-8.3	-3.5	-10.3	-8.6	i	1.7	-13.8	-71.4
COc1ccc(C2C3=C(N=C4SCC(=O)N42)c2ccccc2CC3)cc1 (configuration not stated)	-9.0	1.0	6.0	-4.0	i	2.2	-18.5	nt
CCCCN(C(=O)C1CC(=O)N(CCc2ccc(OC)c(OC)c2)C1)c1c(N)n(CC(C)C)c(=O)[nH]c1=O (configuration not stated)	-0.5	7.0	nt	nt	nt	nt	-37.1	-3.4
O=C1CC(N2CCN(c3ccc(C(=O)c4ccc(F)cc4)cc3)CC2)C(=O)N1 (configuration not stated)	0.0	-3.6	55.7	-3.0	i	-7.6	5.3	nt
CCC(C)Sc1nnc(CNS(=O)(=O)c2ccc(F)cc2)n1C (configuration not stated)	-0.5	-0.3	6.4	-5.7	i	4.3	-6.8	-11.4
O=C(C=Cc1ccc2c(c1)OCO2)C1CC1	2.8	0.9	nt	nt	nt	nt	-11.4	0.7
COCCCNC(=O)c1ccc(-c2nc3ccccc3nc2-c2ccccc2)cc1	-3.0	-6.7	nt	nt	i	nt	-12.9	5.3
O=C(COC(=O)c1c2c(nc3ccccc13)/C(=C/c1ccco1)CC2)NC1CCCC1	-2.2	7.5	nt	104.5	i	3.4	nt	-17.8	eIF4H FP inh retest=44.5;PABP polyA inh retest=46.3
COc1ccc(C2NC(=O)c3sc(=S)n(-c4ccccc4)c3N2)cc1 (configuration not stated)	-0.8	-0.7	-20.8	-2.0	i	-7.6	nt	nt
COc1ccc2[nH]c(=O)c(CN(Cc3cccs3)Cc3nnnn3Cc3ccccc3)cc2c1	-10.0	-13.8	8.0	2.5	i	-13.6	-2.9	98.2*
O=C(NNC(=O)C1CCN(Cc2ccc(Cl)c(Cl)c2)CC1)c1cccs1	7.2	-6.2	-4.5	-3.7	i	5.8	-12.2	8.0
CC(Cl)C(=O)NC(=O)NC12CC3CC(CC(C3)C1)C2 (configuration not stated)	3.9	6.9	12.0	-12.8	i	-2.3	-15.6	-91.2
O=C(Nc1nncs1)c1ccccc1Br	0.1	-0.7	1.3	-5.0	i	-6.1	-2.0	nt
O=C(NC1CCCC1)c1ccc2c(c1)S(=O)(=O)c1ccccc1C2=O	1.3	-0.1	-1.8	nt	i	nt	0.9	-13.1
CCOC(=O)c1c(C)nc2cc(C)ccn12	nt	nt	-2.0	-12.8	i	2.5	-7.0	nt
Cc1ccc2nc3sc(C(=O)N4CCOCC4)c(N)c3cc2c1	0.1	1.5	-9.6	0.3	i	19.2	-67.6	73.8*

Bioassay records deposited in PubChem by several laboratories.
